Screens from PubChem.
TRPML1 ag: qHTS for Agonists of the Human Mucolipin Transient Receptor Potential 1 (TRPML1). Mucolipin-1 (Homo sapiens), Q9GZU1. TRPML1-expressing cells, Ca2+ dye fluorescence, FDSS; host cell line not named in the record; reference of the full effect not given here. activation, % (concentration not given with the values). 0.12% of 410,000 active; in the data active = activation above about 50%; inconclusive = about 30% to 50%; inactive = below about 30%; also: 0% is about no effect; the text of the record puts the active cut at 80%
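Cells: TRPML1-DL, 1X Tet inducer, ~16 h at 37 degrees C/5% CO2. Dye: ABD Ca8 no-wash + quencher, 45-90 min RT. Read: 10 s baseline, compound add, 110 s agonist phase; 54-4 EC80 (4uM final), 110 s antagonist phase.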
D2 ag: Beta-Arrestin HTS for Positive Allosteric Modulators of the Human D2 Dopamine Receptor: Agonists | D(2) dopamine receptor (Homo sapiens), P14416 | DiscoveRx PathHunter D2 beta-arrestin, luminescence, 90 min; 100% = 57 uM dopamine signal | activation, % (no concentration beside the values) | 0.084% of 360,000 active; in the data active = activation above about 40%; inconclusive = about 15% to 40%; inactive = below about 15%; also: compound concentration not given in the record; the text of the record calls up to 30% inactive
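DiscoveRx PathHunter D2 beta-arrestin cells (2,100/well) attached overnight, then compound-stimulated 90 min at 37 C in HBSS/10 mM HEPES/0.1% Tween-20 buffer; beta-galactosidase complementation read by luminescence after 1 h at ambient temperature. Dopamine 57 uM final (EC100) as control.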
Six1-Eya2 inh: qHTS Assay for Inhibitors of the Six1/Eya2 Interaction; Homeobox protein SIX1 (Homo sapiens) + Protein phosphatase EYA2 (Homo sapiens), …; AlphaScreen GST-Six1/His-Eya2 binding, biochemical; hits give low values; control for the full effect not named in the record; activity change, % (concentration not given with the values); 0.56% of 360,000 active; AID 651725, 2012; in the data active = activity change below about -65%; inconclusive = about -30% to -65%; inactive = above about -30%; also: % is scaled to controls: 0 for no effect and ±100 for the full control effect
Target sequence (O00167 whole entry, looked up): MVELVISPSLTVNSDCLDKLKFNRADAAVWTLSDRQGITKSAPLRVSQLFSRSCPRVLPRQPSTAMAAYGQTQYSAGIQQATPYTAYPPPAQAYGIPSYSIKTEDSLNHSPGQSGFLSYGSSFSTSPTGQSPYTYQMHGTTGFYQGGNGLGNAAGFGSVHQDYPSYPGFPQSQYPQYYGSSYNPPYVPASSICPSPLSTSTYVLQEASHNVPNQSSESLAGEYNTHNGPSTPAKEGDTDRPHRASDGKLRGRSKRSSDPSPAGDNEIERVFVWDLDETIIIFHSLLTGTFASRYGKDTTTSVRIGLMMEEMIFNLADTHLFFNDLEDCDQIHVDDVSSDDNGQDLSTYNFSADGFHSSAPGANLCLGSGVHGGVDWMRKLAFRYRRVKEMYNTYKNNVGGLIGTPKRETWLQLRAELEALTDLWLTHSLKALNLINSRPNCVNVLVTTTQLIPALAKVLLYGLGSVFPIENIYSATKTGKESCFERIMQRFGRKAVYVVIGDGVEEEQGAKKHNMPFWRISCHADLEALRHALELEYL
Target sequence (Q15475 whole entry, looked up): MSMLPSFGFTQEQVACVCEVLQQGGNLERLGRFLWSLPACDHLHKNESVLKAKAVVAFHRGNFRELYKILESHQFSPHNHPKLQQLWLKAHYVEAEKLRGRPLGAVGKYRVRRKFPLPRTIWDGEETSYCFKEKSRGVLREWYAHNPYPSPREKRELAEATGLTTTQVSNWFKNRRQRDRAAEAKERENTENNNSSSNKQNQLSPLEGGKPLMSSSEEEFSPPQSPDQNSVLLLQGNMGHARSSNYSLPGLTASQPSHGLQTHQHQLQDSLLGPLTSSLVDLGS
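AlphaScreen with GST-Six1 and His-Eya2 (5X mix: 250 nM and 500 nM), glutathione donor and nickel acceptor beads; buffer 50 mM Tris pH 8.0, 300 mM NaCl, 1 mM TCEP; 1 h at 37 C in the dark.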
CtBP-E1A inh: qHTS Assay for Inhibitors of the CtBP/E1A Interaction; CtBP / adenovirus E1A interaction (AlphaScreen); AlphaScreen GST-E1A/His-CtBP binding, 1536-well; hits give low values; control for the full effect not named in the record; activity change, % (no concentration beside the values); 0.49% of 340,000 active; in the data active means activity change below about -65%; inconclusive means about -30% to -65%; inactive means above about -30%; also: % is scaled to controls: 0 for no effect and ±100 for the full control effect; compound concentration not given in the record
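In 5 uL wells, 23 nL compound meets equimolar GST-E1A and His-CtBP (5X stock 125 nM each) for 2 h, 37 °C. Beads (5X, 50 ug/mL) then 1 h, 37 °C, dark.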
TRPML1 blocker: qHTS for Inhibitors of the Human Mucolipin Transient Receptor Potential 1 (TRPML1); Mucolipin-1 (Homo sapiens), Q9GZU1; TRPML1-inducible cells, Ca2+ dye fluorescence, FDSS; hits give low values; inhibition of EC80 agonist-evoked calcium signal; activity change, negative = inhibition, % (test concentration not listed); 0.02% of 390,000 active; in the data active means activity change below about -50%; inconclusive means about -30% to -50%; inactive means above about -30%;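 also: stimulus is agonist 54-4 at its EC80 concentration; % is scaled to controls: 0 for no effect and ±100 for the full control effect; compound concentration not given in the record; the text of the record puts the active cut at -80%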
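Calcium fluorescence in TRPML1-DL cells induced overnight with Tet: a 110 s read after compound pin addition, then a 110 s antagonist read after challenge with 54-4 at 4 uM final (EC80).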
PINK1 modulator: A Quantitative High throughput Screen to Identify Chemical Modulators of PINK1 Expression | 0.2% of 410,000 active | Potency, µM (top dose mostly 76.6 µM), inactives show at the highest dose activation (PINK1 increase), actives largely listed as activators | PINK1 immunofluorescence, high-content cytometry, 24 h | AID 624263, 2012; active = well fitted activation curve with a large enough effect; inconclusive = small, poorly fitted or top-dose-only effect; inactive = flat fitted curve, though single readings scatter; cell line not stated here;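 also: potency is read from the fitted curve at half-maximal effect; % of control where 0% means no effect; nearly all actives have a fitted effect of over 65% in size; a mitochondrial uncoupler was the plate control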
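Fluorescence from anti-PINK1 antibody, together with nuclear and cell stains, was scanned on a laser-scanning cytometer. Before staining, stable-line cells were incubated 24 hours with compounds at 5 concentrations; primary antibody 12 h at 10 degrees C.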
The depositor's hits bear a star; ? = inconclusive; . = not tested or not shown; [ ] = dose if it differs, or a comment.

SMILES	D2 ag	Six1-Eya2 inh	TRPML1 ag	PINK1 modulator	TRPML1 blocker	CtBP-E1A inh
CCCOc1ccc(-c2c(C(=O)N/N=C(\C)c3ccncc3)nnn2-c2nonc2N)cc1	-5.2	0	0.7	-0.8%	27	-3
CC1(C(=O)Nc2cccc(Oc3ccccc3)c2)Cc2c(-c3ccc4c(c3)OCO4)ccnc2O1 (stereo unspecified)	-2.7	-7	0.3	3.8%	.	-9
Cc1nnc(SCC(=O)N2CCN(c3ccccc3)CC2)n(N)c1=O	3.5	-2	-0.3	-0.5%	6	4
Cc1ccccc1NC(=O)CCN1C(=O)CSC1=O	-3.1	4	-0.5	-2.2%	2	9
COc1ccc(C2C3=C(CC(C)(C)CC3=O)N(CCN3CCOCC3)C3=C2C(=O)CC(C)(C)C3)cc1	-1.5	1	0.8	1.0%	-1	2
O=c1ccn(Cc2ccccc2)cc1	0.3	4	-0.5	-1.3%	3	4
O=C(CN1CCCCCC1)N1c2ccccc2C=Cc2ccccc21	-2.1	-2	-0.4	-2.2%	-9	-1
CCn1c(SCC(=O)Nc2ccc(N(C)C)cc2)nnc1C1CC1	-1.4	-2	-1.0	1.2%	-1	-8
CCOC(=O)[C@@H]1[C@H]2COc3ccc(Br)cc3[C@@H]2N2C(=O)N(c3ccc(OC)cc3)C(=O)[C@@]12C	-0.2	1	-0.6	-0.1%	0	4
OCCNc1nc(N2CCN(c3ccccc3)CC2)nc2ccccc12	0.9	-10	0.8	-0.1%	3	3
O=C(CSc1n[nH]c(-c2ccccc2)n1)c1ccccc1	-2.4	-3	-1.7	0.5%	16	1
Cc1ccc(C)c(OCCC(=O)OCC(=O)Nc2ccc(N3CCOCC3)cc2)c1	-3.0	8	0.7	3.0%	-9	0
O=C(CN(c1cc(C(F)(F)F)ccc1Cl)S(=O)(=O)c1ccccc1)NCc1cccnc1	-3.2	3	0.7	0.9%	15	-3
CC(C)C(C(=O)NCc1ccco1)N(CC1CCCO1)C(=O)CNS(=O)(=O)c1ccccc1 (stereo unspecified)	-0.7	-1	-0.3	0.5%	-12	-4
CC(c1nnc(SCC(=O)N2CC(=O)Nc3ccccc32)n1Cc1ccccc1)N(C)C (stereo unspecified)	-1.0	1	-0.1	2.3%	-6	8
COc1ccc(N(CC(O)Cn2c3ccccc3c3ccccc32)S(=O)(=O)c2ccccc2)cc1 (stereo unspecified)	3.8	3	1.6	8.2%	55	-2
O=C(N/N=C\c1ccc(F)cc1)c1ccc(Cn2cc(Br)c([N+](=O)[O-])n2)o1	0.0	-24	5.1	5.3%	18	0
CCN(CC)CCOC(=O)c1ccc(N=CC2=C(O)CC(C)(C)CC2=O)cc1	0.3	1	.	1.5%	.	3
CCOc1ccccc1NC(=O)Nc1ccc2nc(N3CCN(C)CC3)cc(C)c2c1	.	.	1.0	14%	-9	.
O=c1c2ccccc2nc(-c2ccccc2)n1CCCN1CCOCC1	1.5	1	1.0	-2.5%	-6	-6
COc1cc(C(O)c2nc3ccccc3s2)cc(OC)c1OC (stereo unspecified)	-0.7	10	0.2	1.3%	5	.
CCN(CC)S(=O)(=O)c1ccc(N2CCN(C)CC2)c(NC(=O)Nc2ccccc2F)c1	2.3	1	2.8	-0.3%	0	0
O=C(CSc1nnc(CNC(=O)c2cccc(C(F)(F)F)c2)o1)NCC1CCCO1 (stereo unspecified)	-4.2	-1	-0.4	-0.7%	2	9
OCc1c[nH]c(=S)n1CCOc1cccc(C(F)(F)F)c1	2.2	-1	0.6	2.2%	-4	.
FC(F)(F)c1nc(NCC2CCCO2)c2nnn(Cc3ccccc3Cl)c2n1 (stereo unspecified)	-4.6	10	1.2	1.7%	1	.

Among those listed so far, these contain an NH in an aromatic ring:
SMILES	D2 ag	Six1-Eya2 inh	TRPML1 ag	PINK1 modulator	TRPML1 blocker	CtBP-E1A inh
O=C(CSc1n[nH]c(-c2ccccc2)n1)c1ccccc1	-2.4	-3	-1.7	0.5%	16	1
OCc1c[nH]c(=S)n1CCOc1cccc(C(F)(F)F)c1	2.2	-1	0.6	2.2%	-4	.

The results go on.
SMILES	D2 ag	Six1-Eya2 inh	TRPML1 ag	PINK1 modulator	TRPML1 blocker	CtBP-E1A inh
Fc1cccc(Nc2ncnc3sccc23)c1	4.5	-1	0.3	0.8%	12	.
Cc1ccc(S(=O)(=O)Nc2ncnc3sc(C)c(C)c23)cc1	-0.1	1	0.6	1.5%	2	0
COc1ccccc1NC(=O)c1sc2ncn(Cc3ccccc3C)c(=O)c2c1C	-0.1	-3	0.7	.	29	5
CCOC(=O)N1CCN(C(=S)Nc2ccc3nc(N4CCN(CC)CC4)cc(C)c3c2)CC1	-0.2	-1	0.6	4.9%	-5	-10
Nc1ccc(CC(N)c2csc(Nc3cc(Oc4ccccc4)ncn3)n2)cc1 (stereo unspecified)	-5.4	?	-0.3	3.6%	.	?
Cc1ccc(S(=O)(=O)CC(=O)Nc2sc3c(c2C#N)CCCC3)cc1	.	.	1.5	-0.1%	-10	.
COc1ccc2[nH]cc(CCCN3C(=O)c4ccccc4C3=O)c2c1	0.9	-13	1.2	1.9%	57	-5
COc1ccc(CNS(=O)(=O)c2ccc(F)c(C(=O)Nc3ccc(OC)cc3)c2)cc1	-4.8	-1	0.9	1.4%	2	5
Cc1cc(NC(=O)C(C)SCC(=O)N(C)CC(=O)Nc2ccc(F)cc2)no1 (stereo unspecified)	-4.6	1	-1.2	2.6%	-2	3
CN1N=C(C(=O)NC2CCCc3c2cnn3-c2ccc(F)cc2F)CCC1=O (stereo unspecified)	-3.8	1	0.0	1.7%	9	2
CCOC(=O)c1ccc(NC(=O)Cn2cc3c(n2)CCC(C)C3)cc1 (stereo unspecified)	-0.7	0	0.8	4.8%	-28	5
CCC(=O)Nc1ccccc1-c1nc2ccccc2n(C(CC)C(=O)Nc2cccc(C(C)=O)c2)c1=O (stereo unspecified)	.	.	4.4	2.7%	8	.
CCN(CC)C(=O)/C=C/c1ccc(OC)c(S(=O)(=O)N2CCCCC2)c1	-0.3	-5	-0.3	1.0%	3	1
CC(CC(=O)N1CCN(c2ccccc2)CC1)S(=O)(=O)c1ccc2c(c1)NC(=O)CO2 (stereo unspecified)	3.7	4	-0.1	-0.4%	-2	-6
CN1CCN(c2nc(-c3ccccc3)nc(-c3ccc(F)cc3)c2C#N)CC1	-3.4	1	-0.5	3.9%	4	-2
Cc1cc(=O)oc2cc(OCC(=O)N3CC[C@@]4(O)CCCC[C@H]4C3)c(Cl)cc12	-5.0	2	.	-0.1%	.	-10
CC(=O)N1CCN(c2ccc([N+](=O)[O-])cc2C#N)CC1	0.7	8	-0.4	2.8%	20	-1
CCc1c(C(=O)Nc2cc(C(=O)OC)ccc2C)csc1C	0.2	8	0.0	-1.4%	-11	7
CCn1c(SCC(=O)Nc2ccc(N(C)C)cc2)nnc1-c1ccco1	-1.0	-18	-0.7	0.7%	1	-1
COc1ccccc1N1CCN(c2nc3ccccn3c(=O)c2C=O)CC1	-2.2	1	0.5	0.4%	13	-1
O=C(NCC(F)(F)F)Nc1cccnc1	0.8	13	-0.1	-3.2%	-9	0
COCCNC(=O)Nc1ccc(F)cc1	-1.7	-1	0.8	-1.6%	-4	5
CCC(C)(C)NC(=O)Cc1ccccc1OC	-3.0	0	-0.6	0.3%	12	3
O=C(CSc1nc(-c2ccco2)cc(C(F)(F)F)n1)Nc1ccc(C(=O)N2CCOCC2)cc1	-2.2	-6	-0.4	0.8%	17	-1
CC(C)CCOc1ccc(CO[C@@H]2[C@H]3OC(C)(C)O[C@H]3O[C@@H]2C(O)CO)cc1 (stereo partly specified)	-1.4	5	0.4	0.1%	10	13
O=C(c1cccnc1)N1CCc2ccccc2C1	-3.3	-3	0.5	-4.9%[38.3 µM]	40	-16
C(=C1c2ccccc2-c2ccccc21)c1ccccn1	-2.4	29	0.0	8.2%	4	4
Cc1ccc(SCc2nnc(NC(=O)c3ccccc3)s2)cc1	-3.9	-2	0.4	-1.6%	-17	-5
COc1ccccc1C(=O)N/C(=C\c1cn(C)c2ccccc12)C(=O)NCCN1CCOCC1	-1.6	2	-0.5	0.3%	1	2
COc1ccc2c([N+](=O)[O-])c(N3CCCC3)[nH]c2c1	?	10	-0.7	-0.1%	-4	11
CCN(CC(=O)NCc1ccc(F)cc1)C(=O)/C=C/c1cccs1	-2.2	8	1.0	-2.2%	-21	-4
Cc1cc(C)c(S(=O)(=O)N2CCOC2CNC(=O)C(=O)NCc2ccccn2)c(C)c1 (stereo unspecified)	-1.0	-5	-0.1	0.1%	-6	-12
COc1ccc(NC2=NCCC(=O)N2Cc2cccs2)cc1	-4.5	-5	3.7	0.4%	8	-7
CCNC(=O)C1(C)CCCN(C(=O)CCc2cccs2)C1 (stereo unspecified)	2.7	13	-0.4	3.2%	.	-7
CC(=O)Nc1ccc(C(=O)CSc2nnc3ccc4ccccc4n23)cc1	.	.	-0.3	0.2%	2	.
O=C1CC(N2CCN(C/C=C/c3ccccc3)CC2)C(=O)N1Cc1cccs1 (stereo unspecified)	2.3	-6	1.2	-1.5%	15	-1
COc1cc(S(=O)(=O)n2cnc3ccccc32)ccc1Br	-5.4	2	.	-0.8%	.	.
CCCCn1c(N)c(N(C)C(=O)C2CCCC2)c(=O)[nH]c1=O	-0.7	2	-0.5	1.9%	-15	.
COc1cccc(OCCNC(=O)c2ccc(C)cc2)c1	-2.7	-6	2.0	4.2%	38	5

Arranged by value in Six1-Eya2 inh (ascending): some entries from above
mol,D2 ag,Six1-Eya2 inh,PINK1 modulator,TRPML1 blocker,CtBP-E1A inh
O=C1CC(N2CCN(C/C=C/c3ccccc3)CC2)C(=O)N1Cc1cccs1 (stereo unspecified),2.3,-6,-1.5%,15,-1
Cc1cc(C)c(S(=O)(=O)N2CCOC2CNC(=O)C(=O)NCc2ccccn2)c(C)c1 (stereo unspecified),-1.0,-5,0.1%,-6,-12
O=C(c1cccnc1)N1CCc2ccccc2C1,-3.3,-3,-4.9%[38.3 µM],40,-16
Cc1ccc(SCc2nnc(NC(=O)c3ccccc3)s2)cc1,-3.9,-2,-1.6%,-17,-5
CCCCn1c(N)c(N(C)C(=O)C2CCCC2)c(=O)[nH]c1=O,-0.7,2,1.9%,-15,.
CCN(CC(=O)NCc1ccc(F)cc1)C(=O)/C=C/c1cccs1,-2.2,8,-2.2%,-21,-4
